Source: PubChem
VACV Venus inh: inhibitors of vaccinia virus (Venus reporter) | Vaccinia virus Venus reporter expression, fluorescence | Potency, µM (series often up to 36.5 µM), for the others: at the highest dose activity change, negative = inhibition, usual class: inhibitors | 0.46% of 330,000 active | AID 720580; active means well fitted inhibition curve with a large enough effect; inconclusive means small, poorly fitted or top-dose-only effect; inactive means no such curve, though single readings can be large or run the other way; tested in A549 cells; also: nearly all actives have a fitted effect of over 30% in size; inactives centre near -10
Vaccinia mCherry: inhibitors of vaccinia virus infection (mCherry reporter signal); Vaccinia virus mCherry reporter infection, fluorescence; about a quarter of the inactives have no number; Potency, µM (doses to about 36.5 µM), inactives show top-dose activity change, negative = inhibition, actives largely listed as inhibitors; 0.63% of 310,000 active; AID 720579; active = well fitted inhibition curve with a large enough effect; inconclusive = small, poorly fitted or top-dose-only effect; inactive = no such curve, though single readings can be large or run the other way; tested in A549 cells; also: nearly all actives have a fitted effect of over 35% in size; inactives centre near -10
* marks the source's active call; other numbers are inactive results; i = inactive; ? = inconclusive; / = not tested or not shown; [ ] = remark or other dose. % is scaled to controls: 0 for no effect and ±100 for the full control effect; potency is read from the fitted curve at half-maximal effect.

Every second line gives: VACV Venus inh	Vaccinia mCherry
Cc1ccccc1C(=O)NC1CC2CCC(C1)N2Cc1ccccc1 (stereo not drawn)
  -8%	i
Cc1ccc(Cl)cc1N1CCN(C(=O)c2ccc3c(c2)N(Cc2ccccc2F)C(=O)c2ccccc2S3=O)CC1 (stereo not drawn)
  -17%	-18%
CCOC(=O)Cc1csc(NC(=O)Nc2cccs2)n1
  -10%	i
CC(=O)c1c(C)[nH]c(C(=O)OCc2cccc(C)c2)c1C
  -8%	i
Cn1nnnc1SCC(=O)Nc1ccc(Br)cc1Br
  -3%	-12%
Cc1cc(C)n(-c2nc3ccccc3c(=O)n2OCCOc2ccccc2)n1
  -6%	-4%
CC(=O)N[C@H](Cc1c[nH]c2ccccc12)C(N)=O
  -10%	i
O=C(NNS(=O)(=O)c1ccccc1[N+](=O)[O-])c1cccc(Cl)c1
  -8%	i
CCCc1nc2c(C)cc(Br)cn2c1Cc1ccc(OC)cc1C
  -8%	i
CCC(C)NC(=O)CSc1nc2n[nH]c(C)c2c(=N)n1-c1cc(Cl)ccc1C (stereo not drawn)
  -15%	-17%

In the list so far, six contain a carbonyl joined to an NH by a bond outside any ring:
Every second line gives: VACV Venus inh	Vaccinia mCherry
Cc1ccccc1C(=O)NC1CC2CCC(C1)N2Cc1ccccc1 (stereo not drawn)
  -8%	i
CCOC(=O)Cc1csc(NC(=O)Nc2cccs2)n1
  -10%	i
Cn1nnnc1SCC(=O)Nc1ccc(Br)cc1Br
  -3%	-12%
CC(=O)N[C@H](Cc1c[nH]c2ccccc12)C(N)=O
  -10%	i
O=C(NNS(=O)(=O)c1ccccc1[N+](=O)[O-])c1cccc(Cl)c1
  -8%	i
CCC(C)NC(=O)CSc1nc2n[nH]c(C)c2c(=N)n1-c1cc(Cl)ccc1C (stereo not drawn)
  -15%	-17%

Back to the main list, repeating the three entries before the break.
Every second line gives: VACV Venus inh	Vaccinia mCherry
O=C(NNS(=O)(=O)c1ccccc1[N+](=O)[O-])c1cccc(Cl)c1
  -8%	i
CCCc1nc2c(C)cc(Br)cn2c1Cc1ccc(OC)cc1C
  -8%	i
CCC(C)NC(=O)CSc1nc2n[nH]c(C)c2c(=N)n1-c1cc(Cl)ccc1C (stereo not drawn)
  -15%	-17%
C=CCn1c(SCc2cc(=O)n3ccsc3n2)nnc1C1CCCCC1
  -6%	-15%
Cc1ccc(C(=O)Nc2ccc(C(=O)N/N=C/c3ccc(C)o3)cc2)cc1
  ?	?
CC(C)(C)OC(=O)N1CCC[C@H]1C(=O)NCc1ccc(F)cc1F
  -2%	-1%
COc1ccc(OCC(=O)N2CCN(Cc3ccc(SC)cc3)CC2)cc1
  -6%	-8%[7.34 µM]
Cc1ccc(S(=O)(=O)C(C#N)c2nc3ccccc3nc2N2CCC(C)CC2)cc1 (stereo not drawn)
  -10%	/
CSc1ncc2c(n1)-c1cc(C)ccc1SC2
  -19%	-6%
O=C(COC(=O)c1ccccc1F)Nc1ccc2c(c1)OCCO2
  -7%	-1%
Cc1ccc(CNC(=O)c2ccc(N3CCC4(CC3)CC(c3cccc(Br)c3)=NO4)c(NC(=O)c3ccc(Cl)c([N+](=O)[O-])c3)c2)cc1
  -7%	-12%
c1ccc(Cn2c(CN3CCCC3)nc3ccccc32)cc1
  -14%	-8%
COc1ccc(/C=C(\C#N)C(=O)OCC(=O)NC2CC2)cc1
  -15%	i
Cc1ccc(NC(=O)n2ccc(-c3ccc(-n4ccnc4)cc3)n2)cc1
  -2%	-4%
CC(C)N(C(=O)[C@H]1C[C@H](CC(=O)NCc2ccco2)C(=O)N2CCc3c([nH]c4cc(CCC(=O)N(C)C)ccc34)[C@]12C)C(C)C
  0%	-1%
CCn1cc(C(=O)NCc2ccccc2)c(=O)c2cc(S(=O)(=O)N3CCCCCC3)ccc21
  -22%	?
CSc1nnc2c(n1)OC=Nc1ccc(Br)cc1-2
  2%	-9%
Cc1cccc(C(=O)N(Cc2ccccc2F)C2CCS(=O)(=O)C2)c1 (stereo not drawn)
  2%	-6%
C=CCNc1nc(C(=O)OCC(=O)Nc2ccc(S(N)(=O)=O)cc2)cs1
  7%	0%
COc1cccc(OCCn2c(-c3ccc(Cl)cc3)nc3ccccc3c2=O)c1
  5%	-6%
Cn1c(=O)oc2cc(S(=O)(=O)NCc3ccccc3)ccc21
  -16%	i
O=C1CN(c2nc(-c3ccccc3)c3cc(Cl)ccc3n2)c2ccccc2N1
  -8%	-9%
Cc1cc(=O)n(C)c(=O)n1CCCCCCOc1cccc([N+](=O)[O-])c1
  -12%	-26%
Clc1ccc2c(c1)C(OC1CN3CCC1CC3)c1ccccc1CS2 (stereo not drawn)
  ?	?
COc1ccc(NC(=O)C(C2CC2)n2c(=O)c(-c3cc4ccccc4[nH]3)nc3ccccc32)cc1 (stereo not drawn)
  ?	?
CCc1nnc(NC(=O)C(C)Sc2ccccc2)s1 (stereo not drawn)
  -11%	i
O=C(O)CCCC(=O)Nc1nc(-c2ccc(F)cc2)cs1
  -8%	/
CC1(C(=O)NS(=O)(=O)c2ccccc2Cl)CCN1C(=O)CC1CCCC1 (stereo not drawn)
  -5%	23%
CC(C)c1ccc(C(=O)Nc2cccnc2)cc1
  -22%	-12%
COc1cccc(-c2nc(CS(=O)(=O)CC(=O)N3CCN(C4CCCCC4)CC3)c(C)o2)c1
  -15%	-13%
CC(C)(C)c1cc(C(=O)O)c(CN2CCCCC2)o1
  2%	-9%
Cc1cccc(/C=N/NC(=O)c2cc3c(s2)-c2ccccc2CC3)c1
  ?	-23%
Nc1nc(=O)n(C2CC(O)C(CO)O2)cc1Cl (stereo not drawn)
  25%	6%
CCOc1ccc(C(=O)N2CCC(c3nnc(-c4ccccc4OC)o3)CC2)cc1
  -13%	-15%
COc1ccc2nc(C)cc(SCC(=O)NNC(=O)COc3cccc4ccccc34)c2c1
  -20%	-1%
CCCNc1c(NS(=O)(=O)c2c(F)c(F)c(F)c(F)c2F)c(=O)oc2ccccc12
  ?	5µM*
CC(Oc1ccc(-n2cnnn2)cc1)C(=O)O (stereo not drawn)
  -3%	i
CCc1cc2c(=O)n(CCCOC)c(SCC(=O)Nc3oc(C)c4c(C)n[nH]c(=O)c34)nc2s1
  -9%	-17%
CCOCCn1c(CN2CCN(CC)CC2)nc2c1c(=O)n(C)c(=O)n2C
  -15%	-6%
COc1cccc(C(O)c2nc(-c3ccc(F)cc3OC)cs2)c1 (stereo not drawn)
  5%	0%
COc1cc(CNCCSc2nnnn2C)ccc1OCc1c(F)cccc1Cl
  -12%	-19%
CCOC(=O)c1nn(-c2cccc(OC)c2)c2nc(CC)c(C#N)c(=O)n12
  -3%	i
COc1ccc(OC)c(NC(=O)CN2C(=O)CC(c3ccco3)Sc3ccccc32)c1 (stereo not drawn)
  -8%	-13%
O=C(Nc1ccc2nc(-c3cccs3)[nH]c2c1)c1ccco1
  2%	-15%
Cc1cc(N(CCO)Cc2ccccc2)n2nc(-c3ccc(C(C)(C)C)cc3)nc2n1
  -5%	-12%
CCOc1cc(S(=O)(=O)NCC2OCCc3ccccc32)c(OCC)cc1-n1cnnn1 (stereo not drawn)
  -8%	0%
CC1CCCCN1C(=O)COC(=O)c1cc([N+](=O)[O-])ccc1N1CCOCC1 (stereo not drawn)
  -10%	-15%
CC(NC(=O)c1cc(Br)cs1)C1CCCO1 (stereo not drawn)
  -19%	-20%
Cc1cccc(NP(=O)(Oc2ccccc2F)Oc2ccccc2F)c1
  -22%	-14%
O=C(NCc1ccco1)C1CC(c2c(Cl)cccc2Cl)=NO1 (stereo not drawn)
  ?	-22%
O=C1C(Cl)=C(NS(=O)(=O)c2ccc([N+](=O)[O-])cc2)C(=O)c2ccccc21
  16%	-2%
COc1ccc(C(=O)NCC(c2ccc(N(C)C)cc2)N2CCc3ccccc32)cc1 (stereo not drawn)
  3%	-5%
COc1ccc(-c2ccc(CN3C(CC(C)C)C(=O)N(Cc4cn(CC5CCCCC5)nn4)CCS3(=O)=O)cc2)cc1OC (stereo not drawn)
  -30%	-11%

Further entries follow.
Every second line gives: VACV Venus inh	Vaccinia mCherry
CCSc1nnc(NC(=O)C2CCN(S(=O)(=O)c3ccccc3C(F)(F)F)CC2)s1
  -25%	-6%
COc1cc(/C=C/C(=O)OCC(=O)NC(=O)NC23CC4CC(CC(C4)C2)C3)ccc1OCC#N
  ?	-12%
CC(=O)c1cccc(NC(=O)N2CCCC(C(=O)c3cc(F)ccc3F)C2)c1 (stereo not drawn)
  -3%	-11%
Cc1ccc(C(=O)NC(=S)Nc2ccc(Oc3ccc(Cl)cc3)cc2)cc1
  -11%	/
CCn1ncc(-c2cc(C(=O)O)no2)c1C
  -10%	i
Cc1cccc([N+](=O)[O-])c1C(=O)O
  -13%	-3%
CC(NC(=O)Cc1ccc(NC(=O)N2CCSc3ncccc32)cc1)c1ccccc1 (stereo not drawn)
  -8%	-13%
C[C@H]1CN([C@@H](C)CO)C(=O)CCCn2nncc2CO[C@@H]1CN(C)C(=O)c1ccc2ccn(C)c2c1
  3%	3%
C/C(=N\NC(=O)c1ccccc1NC(=O)c1ccc(Cl)cc1)c1ccncc1
  2%	i
O=C(NCc1ccccc1Cl)c1ccc(S(=O)(=O)N2CCCC2)cc1
  -12%	i
N#Cc1ccccc1NC(=O)CC1c2ccccc2Oc2ccccc21
  -2%	i
COCCN1Cc2cccc(C(=O)N3CCN(c4cc(C)ccc4C)CC3)c2C1=O
  -9%	i
Cc1c(C2(O)CCCCC2)[nH]c2ccc(C#N)cc12
  ?	-5%
Cc1ccc(CC2S/C(=C(/C#N)C(=O)N3CCOCC3)N(c3ccccc3)C2=O)cc1 (stereo not drawn)
  -22%	i
O=C(CN1CCN(S(=O)(=O)c2cccs2)CC1)N1CCCCC1
  -1%	i
O=C(Nc1cccc2ccccc12)C(=O)C1C(=O)Nc2ccccc21 (stereo not drawn)
  8%	?
O=C(O)C(=Cc1ccccc1[N+](=O)[O-])c1ccc2c(c1)OCO2
  9%	i
CCN(c1ccccc1)S(=O)(=O)c1ccc2[nH]c(=O)c(=O)[nH]c2c1
  -5%	-16%
COc1ccc(Cn2ccnc2CO)cc1[N+](=O)[O-]
  -6%	-1%
CC1C(=O)N2CCCc3cc(S(=O)(=O)Nc4ccccc4F)cc1c32 (stereo not drawn)
  -4%	i
COc1ccc(OC)c(C2=NS(=O)(=O)N(C)C(C(=O)Nc3cccc(C(C)=O)c3)=C2)c1
  -10%[7.34 µM]	-19%[7.34 µM]
O=C(Nc1cccs1)Nc1c(F)c(F)cc(F)c1F
  -4%	i
CN(CC(=O)Nc1c(Cl)cccc1Cl)CC(=O)N(C)C1(C#N)CCCCC1
  0%	i
O=C1C=C(c2cccc3c2Oc2ccccc2S3)C[C@@H](c2ccc(Cl)cc2)C1
  -20%	-26%
Cc1c(C(=O)Nc2ccc(-n3c(C)nc4ccccc4c3=O)cc2)cccc1[N+](=O)[O-]
  -15%	-7%
O=C(CCn1cnnn1)Nc1ccc(Cl)c(Cl)c1
  -10%	-4%
COc1cc(Cl)ccc1OCc1cc(C(=O)N2C[C@H]3CC[C@H]2C3)no1
  -14%	i
C#CCNC(=O)C1=C[C@H](C(C)(C)C)C[C@H](OCc2ccc(CO)cc2)O1
  -6%	i
C[N+]12CCCCC1C(COC(=O)c1ccc3c(c1)OCO3)CCC2 (stereo not drawn)
  -12%	i
CCN(CC(=O)Nc1c(F)cccc1F)C(=O)c1cccc(-n2cnnn2)c1
  -6%	-11%
CCn1c(SCC(=O)NNC(=O)c2ccc(OC)cc2)nnc1-c1ccco1
  -1%	?
FC(F)(F)c1cccc(N2CCNCC2)c1
  -1%	-1%
Cc1ccccc1-n1c(/C=C/c2ccc(N(C)C)cc2)nc2ccccc2c1=O
  10%	-14%
Cc1ccc2scc(N3CCCCC3C)c(=O)c2c1 (stereo not drawn)
  -14%	-13%
CCCCNC(=O)CSc1nccn1Cc1ccccc1
  -4%	-10%
CN(C)CCNC(=O)c1cccc(S(=O)(=O)Nc2ccc(F)cc2)c1
  -15%	-6%
Cc1ccc(C)c(Cn2c3ccccc3c3cnn(CC(=O)NCCC4=CCCCC4)c(=O)c32)c1
  -4%	-13%
COc1cccc(CNC(=O)CCC2CCCN(C(=O)c3csc(C(C)C)n3)C2)c1 (stereo not drawn)
  -2%	-7%
Cc1c(C(=O)Nc2ccccc2N2CCN(C)CC2)oc2ccc(F)cc12
  0%	-15%
COc1ccc(CCNC(=O)CCn2c(=O)c3ccccc3n(Cc3ccccc3C)c2=O)cc1OC
  8%	-1%

In a second layout: results already given
canonical_smiles | VACV Venus inh | Vaccinia mCherry
CCCCNC(=O)CSc1nccn1Cc1ccccc1 | -4% | -10%
CN(C)CCNC(=O)c1cccc(S(=O)(=O)Nc2ccc(F)cc2)c1 | -15% | -6%

The list goes on.
Every second line gives: VACV Venus inh	Vaccinia mCherry
CC(C)(C)C(=O)NC(=S)Nc1ccc(Cl)c(C(=O)O)c1
  -6%	i
COc1ccc(N(CC(=O)N2CCOCC2)S(C)(=O)=O)c(OC)c1
  -10%	-4%
COc1cccc(NC(=O)Nc2cnccn2)c1
  1%	?
COc1cc(C=O)ccc1OCCOCCOc1ccc(Cl)cc1Cl
  -11%	-14%
O=C(COc1ccccc1Cl)Nc1ccc(C(=O)O)cc1NC(=O)COc1ccccc1Cl
  -13%	i
